Mtb hypoxia rep: Mtb hypoxia fluorescent reporter inhibition; fluorescence inhibition, % (no concentration beside the values); M. tuberculosis hypoxia-regulated fluorescent reporter, fluorescence; 300,000 tested, 0.1% active; AID 1159583;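 active = 35 to 45% if threefold the growth effect, above 45% if 1.5-fold the growth effect; inactive = the rest, general growth blockers included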;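 also: wells of about 50 µL received 100 nL stock; 0% = vehicle wells and 100% = reference inhibitor wells; whole bacteria with a GFP reporter of the hypoxia response; strong numbers were not always called active; many hits fall short of the cut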
ugtP null kill: kills S. aureus RN4220 lacking UgtP | S. aureus RN4220 ugtP deletion, OD600 growth, 16 h; some inactives read as strong as hits | growth inhibition, % (no concentration beside the values) | 330,000 tested, 0.54% active;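 active = z-score under -3 and OD600 up to 0.15 on both plates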;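 also: plate controls were untreated wells for no effect and antibiotic for full effect; wells of about 80 µL received 100 nL stock; the first replicate is given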
Autofluor counter: compound fluorescence in toxin protease inhibitor counterscreen. compound autofluorescence counterscreen, microsphere flow cytometry; active compounds read high. 360,000 tested, 3.1% active. AID 624483. fluorescence intensity (no concentration beside the values);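 active = at least 3 SD above the mean of all compounds, about 16000 in these data; inconclusive = too few beads counted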;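 also: 100 nL of 1 mM stock went into each well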
Sa RN4220 lethal: kills Staphylococcus aureus RN4220 | S. aureus RN4220 growth, OD600, 16 h | inhibition, % (test concentration not listed) | AID 1259311 | 330,000 tested, 0.33% active;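 active = z-score of -3 or lower and OD600 up to 0.18 on both plates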;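 also: plate controls were untreated cells for no effect and reference antibiotic for full effect; stock transfer was 100 nL into about 80 µL; one replicate is shown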
BJeLR viability: BJeLR cell viability loss | BJeLR (HRASV12) viability, CellTiter-Glo ATP luminescence, 48 h; reference of the scale not given here | inhibition, % (concentration not given with the values) | 300,000 tested, 0.17% active | AID 1554;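 active = replicate mean above 50%; inconclusive = above 50% but judged a plate artefact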;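 also: 50 nL library stock added to about 25 µL; numbers are from one replicate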
PrP 5UTR inh: inhibition of PrP 5' UTR reporter expression; 340,000 tested, 0.35% active; cell-based PrP 5' UTR mRNA reporter, plate reader; inhibition, % (no concentration beside the values); AID 488862;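 active = every replicate at 50% or more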;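 also: 0 = median of the neutral control wells; tested in H4 reporter cells; numbers are from one replicate; inactives centre near -14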
Mtb hypoxia rep growth: recorded beside Mtb hypoxia rep, whose call it bears; growth inhibition, %; measured here: M. tuberculosis growth (absorbance);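 0% = vehicle and 100% = reference antibiotic; read after six days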
Starred values were filed as active, the others as inactive; u = inconclusive; x = not tested or not shown. Hits appear at their usual frequency, and some 4% of all compounds hit somewhere here.

SMILES	Mtb hypoxia rep	Mtb hypoxia rep growth	ugtP null kill	Autofluor counter	Sa RN4220 lethal	BJeLR viability	PrP 5UTR inh
CCn1c(SCCC(=O)O)nnc1-c1cccnc1	0.9	3.9	0.6	4323	-1.5	-16.1	-17.4
S=c1[nH]nc(-c2cc(-c3ccccc3)n[nH]2)n1/N=C/c1cccc(Cl)c1	x	x	x	4443	x	2.4	-40.9
COC(=O)[C@@]1(Cc2ccc(OC)cc2)[C@@H]2C(=CC(=O)[C@H]2CC(=O)C(=O)N(C)C)CN1C(=O)c1ccccc1	3.2	0.5	-5.8	x	-15.8	x	x
O=C(NN=Cc1cccc2ccccc12)c1cc2ccccc2o1	6.6	3.4	-2.4	x	5.5	x	x
CCCCNC(=O)NCCN1CCOCC1	-2.4	-5.5	1.3	3543	2.6	5.3	-20.6
COCCCn1c(=O)/c(=C\c2ccccc2OC(F)F)s/c1=C(/C#N)C(=O)NCCOC	x	x	x	4543	x	-4.1	-13.8
COCCn1c(SCc2cc(=O)n3cc(C)ccc3n2)nc2ccccc2c1=O	14.5	6.2	8.8	x	12.4	-19.9	x
CC(=O)c1c(C(C)=O)c(C)n(-c2ccc(C(=O)O)cc2)c1C	2.7	5.2	-5.7	2943	-14.0	-5.0	-14.8
CC(=O)c1ccc(S(=O)(=O)Nc2ccc3c(c2)OCO3)cc1	-10.4	-4.9	-5.2	2597	0.1	x	19.1
CC1CCCCN1Cc1nc2c(c(=O)n(C)c(=O)n2C)n1Cc1c(F)cccc1Cl (stereo not given)	-9.5	11.8	5.8	6264	20.0	x	-15.6
CCC(=O)Nc1ccc2oc(-c3ccccc3Br)nc2c1	x	x	-7.5	6172	-1.3	5.5	-96.9
CC1(NC(=O)Cc2csc(-c3ccc(Cl)cc3)n2)CCS(=O)(=O)C1 (stereo not given)	11.0	2.5	3.7	3945	6.1	x	-15.4
COc1ccc(-c2c3c(=O)n(C)c(=O)n(C)c3cn2Cc2ccccn2)cc1	8.6	1.0	4.9	5886	3.4	-0.6	-19.7
CC(=O)OCC1=C(C(=O)O)N2C(=O)C(NC(=O)c3ccc(COc4c(C)cccc4Cl)o3)C2SC1 (stereo not given)	8.9	1.5	100.0*	3025	95.5*	-20.2	-22.6
COc1ccc(Br)c(C(=O)OCc2cc(=O)oc3cc(C)ccc23)c1	8.0	0.6	2.4	4243	8.9	-7.8	-6.0
Cc1ccc(OCC(O)CN2C(=O)NC(C)(C)C2=O)cc1 (stereo not given)	x	x	2.7	4227	0.9	-7.6	-12.7
Cc1cccc(C(=O)OCC(=O)NN2C(=O)NC3(CCCCC3)C2=O)c1	-4.9	6.7	-0.4	6255	0.0	x	1.2
N#CCC(CNc1ncc(C(F)(F)F)cc1Cl)OC(=O)c1ccc(Cl)cc1 (stereo not given)	0.5	-3.4	-7.6	10583	-10.9	3.5	-20.2
CC(=O)Oc1ccc2c(c1)c(C(C)=O)c(C)n2C	7.4	1.0	0.7	8151	7.6	8.4	-7.4
Cc1cccc(N(Cc2cc(=O)[nH]c3ccccc23)C(=O)C(C)C)c1	11.6	11.7	6.8	4637	6.4	14.9	-4.1
CCn1c(-c2cccc(Cl)c2)n[nH]c1=S	9.9	10.1	-0.9	2801	3.0	-3.4	-36.5
O=C(/C=C\c1ccco1)Nc1nc(-c2ccc3ccccc3c2)cs1	-4.8	2.2	-0.2	3062	-1.4	4.0	-10.2
CCCCCOc1ccc(/C=C/C(=O)NCCc2nc3ccccc3[nH]2)cc1OC	-3.1	-0.5	3.6	2059	4.7	4.5	-13.2
Cc1nn(-c2ccccc2)c(C)c1/C=N/NC(=O)c1cc(-c2ccc(Cl)s2)[nH]n1	x	x	x	17595*	x	9.0	-22.5

In another format: results already given
CC(=O)Oc1ccc2c(c1)c(C(C)=O)c(C)n2C
  Mtb hypoxia rep = 7.4
  Mtb hypoxia rep growth = 1.0
  ugtP null kill = 0.7
  Autofluor counter = 8151
  Sa RN4220 lethal = 7.6
  BJeLR viability = 8.4
  PrP 5UTR inh = -7.4

Cc1cccc(N(Cc2cc(=O)[nH]c3ccccc23)C(=O)C(C)C)c1
  Mtb hypoxia rep = 11.6
  Mtb hypoxia rep growth = 11.7
  ugtP null kill = 6.8
  Autofluor counter = 4637
  Sa RN4220 lethal = 6.4
  BJeLR viability = 14.9
  PrP 5UTR inh = -4.1

CCn1c(-c2cccc(Cl)c2)n[nH]c1=S
  Mtb hypoxia rep = 9.9
  Mtb hypoxia rep growth = 10.1
  ugtP null kill = -0.9
  Autofluor counter = 2801
  Sa RN4220 lethal = 3.0
  BJeLR viability = -3.4
  PrP 5UTR inh = -36.5

Record cards, from the list above.
`Cc1cccc(N(Cc2cc(=O)[nH]c3ccccc23)C(=O)C(C)C)c1` across the screens: Mtb hypoxia rep = 11.6; Mtb hypoxia rep growth = 11.7; ugtP null kill = 6.8; Autofluor counter = 4637; Sa RN4220 lethal = 6.4; BJeLR viability = 14.9; PrP 5UTR inh = -4.1
`CC(=O)Oc1ccc2c(c1)c(C(C)=O)c(C)n2C` across the screens: Mtb hypoxia rep = 7.4; Mtb hypoxia rep growth = 1.0; ugtP null kill = 0.7; Autofluor counter = 8151; Sa RN4220 lethal = 7.6; BJeLR viability = 8.4; PrP 5UTR inh = -7.4

Continuation:
SMILES	Mtb hypoxia rep	Mtb hypoxia rep growth	ugtP null kill	Autofluor counter	Sa RN4220 lethal	BJeLR viability	PrP 5UTR inh
Cc1cc([N+](=O)[O-])c2ccccc2c1NS(=O)(=O)c1ccccc1	24.0	15.8	-4.0	3339	11.8	x	-9.9
CC(=O)c1ccn(S(=O)(=O)c2ccc(Cl)cc2)c1	1.6	5.4	3.7	5481	5.7	-5.7	4.0
O=C(NN=Cc1ccc([N+](=O)[O-])cc1)c1cnccn1	6.6	14.9	6.1	x	3.7	x	x
COc1cc(-c2nc3ccc(C)cn3c2Nc2ccc3c(c2)OCCO3)ccc1O	x	x	x	7947	x	1.1	-10.1
CCOc1ccccc1C(=O)NCC(=O)NNC(=O)CN(C)S(=O)(=O)c1ccc(Cl)cc1	4.4	-9.8	9.7	5429	3.3	-0.5	-1.0
Cc1ccc(C)c(N2CCN(C(=O)CCCn3c(=S)[nH]c4cc5c(cc4c3=O)OCO5)CC2)c1	5.3	-3.2	-4.6	17273*	4.2	4.3	8.7
Cc1ncc([N+](=O)[O-])n1CCOC(=O)NC(NCc1cccnc1)C(Cl)(Cl)Cl (stereo not given)	0.3	0.0	0.4	2405	3.3	-1.3	8.6
O=C(NCCc1cccc(Cl)c1)c1cccc(-n2cnnn2)c1	15.1	11.8	7.0	5279	-1.6	x	-11.4
Cc1nc2ccc(S(=O)(=O)NC(C(=O)Nc3nc4ccc(Cl)cc4s3)C(C)C)cc2s1 (stereo not given)	x	x	0.9	4949	0.1	-0.7	-9.0
Cn1c(Cn2c(=O)sc3ccccc32)nnc1SCc1ccccn1	7.4	6.8	14.0	9752	6.5	-3.2	-25.4
CSc1nnc(CNS(=O)(=O)c2ccc(Cl)cc2)n1C	-2.9	7.3	4.6	2054	3.0	-3.9	-17.6
O=C(Nc1ccc(Cl)cc1)c1cccs1	-1.1	4.4	10.4	4054	2.1	2.1	-79.9
Cc1cc(N2CCN(C3CCCCC3)CC2)nc2cccc(O)c12	5.1	4.7	5.0	4171	-0.2	-1.9	-12.0
Fc1ccc(C2CCCCN2Cc2nc(CC3CC3)no2)cc1 (stereo not given)	13.2	-3.2	12.8	2608	1.8	3.4	-23.0
CCCN(CCC)Cc1c(C(=O)NN=C/C(C)=C\c2ccccc2)nnn1-c1nonc1N	-12.5	-10.3	-4.6	x	10.1	x	x
NS(=O)(=O)c1ccc(N/N=C/c2ccc3c(c2)OCO3)c([N+](=O)[O-])c1	x	x	x	4490	x	3.2	-26.5
c1ccc(COc2ccc(OCCCN3CCCCC3)cc2)cc1	x	x	14.8	2526	2.3	6.8	-82.7
Oc1ccccc1C=Nn1c(-c2cccs2)n[nH]c1=S	-1.0	6.9	-11.8	x	10.9	x	x
Cc1ccc(S(=O)(=O)N(C)N=Cc2ccc(N(C)C)cc2)cc1	14.5	5.6	9.0	x	5.3	x	x
CCOC(=O)N1CCN(S(=O)(=O)c2c(C)nn(C)c2C)CC1	x	x	7.6	2427	2.5	4.2	-7.2
CCN(CC(=O)NC(C)C)Cc1nc2sc3c(c2c(=O)[nH]1)CCC3	x	x	x	2723	x	3.7	-1.4
Cc1ccc(C(=O)Nc2ccc(CN3CCS(=O)(=O)CC3)cc2)cc1C	19.3	6.5	0.1	4036	1.7	-0.7	-16.2
CCc1sc(C(=O)Nc2ccc3c(c2)OCCO3)cc1Br	x	x	x	4344	x	7.6	-89.1
COc1ccc(C(=O)NCCc2c[nH]c3ccccc23)cc1S(=O)(=O)N1CCCCC1C (stereo not given)	2.3	-2.7	1.4	3262	4.5	x	-11.4
O=C(Cc1nnc(NC(=O)c2ccccc2)s1)N/N=C/c1cccc(O)c1	x	x	x	4232	x	14.3	-0.3
CN(C(=O)CC1C(=O)NCCN1Cc1cccc(F)c1F)C1CC(C)(C)NC(C)(C)C1 (stereo not given)	6.4	4.9	5.6	6195	-1.0	-2.3	-23.5
CCOC(=O)c1nc(SC)n(C)c1C(=O)OCC	10.3	-2.3	5.9	4179	1.6	4.4	-3.6
CCCC(=O)N=c1sc2c(OC)ccc(OC)c2n1C	14.5	6.6	1.1	3502	5.0	2.3	-15.9
COC(=O)c1sccc1-c1ccc(C(=O)Nc2cccc(Cl)c2)o1	5.3	-3.7	-26.3	u	-3.1	-6.0	-35.1
O=C(NNC(=O)c1ccccc1F)c1ccc(NS(=O)(=O)c2ccc(F)cc2)cc1	3.1	3.9	12.1	6515	1.8	x	-17.8
COc1ccc(CC(=O)n2c(CC#N)nc3ccccc32)cc1OC	3.6	3.1	5.3	2525	7.0	-3.8	-11.5
CC1NC(=O)C(CCC(N)=O)NC(=O)c2cc([N+](=O)[O-])cc(I)c2NCCCC(C(N)=O)NC1=O (stereo not given)	6.3	-2.9	3.6	x	4.2	x	x
O=C(c1cc2ccccc2c(=O)o1)N1CCCCCC1	4.3	1.0	13.1	2573	5.9	2.6	-29.4
O=C(NN=Cc1cccc2ccccc12)c1cccs1	11.0	6.1	-11.5	x	0.4	x	x
O=c1c2cc(NC(=S)NC3CCCCC3)ccc2nc2n1CCCCC2	9.8	13.1	1.6	4583	0.1	-0.9	-6.9
CCOc1cc2c(cc1OCC)-n1cccc1C(c1cc(OC)ccc1F)NC2 (stereo not given)	2.3	4.2	-16.4	3682	4.8	-9.6	-16.8
CC(NC(=O)Cn1ncc(Cl)c(Cl)c1=O)C12CC3CC(CC(C3)C1)C2 (stereo not given)	8.1	8.4	-11.1	2112	6.6	-9.0	-47.3
O=C(NC(=S)Nc1ccc(S(=O)(=O)Nc2ccccc2)cc1)C1CC1	5.3	5.9	46.4	4742	8.5	x	-5.8
Cc1ccc(C)c(S(=O)(=O)N2CCN(C(=O)CCNS(=O)(=O)c3ccc(C)c(C)c3)CC2)c1	x	x	x	u	x	-5.7	-9.0
COc1cccc(NS(=O)(=O)c2ccc3[nH]cc(C(=O)NCCC(C)C)c(=O)c3c2)c1	24.9	14.1	4.5	3252	-17.5	-5.7	-11.2
S=C1NCC(c2ccccc2)N1CCCCC1CCCCC1 (stereo not given)	15.8	4.9	34.4	x	13.9	x	x
Cc1ccc(C)c(N(CC(=O)NCc2ccccc2)C(=O)c2csnn2)c1	-3.5	-3.8	4.9	4119	1.1	-12.0	-0.6
Oc1ccc(C2=NNC(=NCc3ccc4c(c3)OCO4)SC2)c(O)c1	10.6	2.6	-1.5	2227	6.0	10.5	-33.9
Cc1cccc(N2CCN(C(=S)c3ccccc3)CC2)c1	9.7	-1.5	8.3	2359	5.3	-3.1	19.0
COc1ccc(Cn2ccnc2SCC(=O)Nc2ccccc2OC)cc1	-0.5	7.4	2.8	5712	0.6	-5.7	-6.9
CCc1cc(C(=O)Nc2cc(S(=O)(=O)N(C)C)ccc2C)sc1C	2.3	-0.3	-0.4	4195	-0.2	5.5	-4.5
CCCCn1c(N)c(N(CC(C)C)C(=O)C2CCCN(C(=O)c3ccc(Cl)cc3)C2)c(=O)[nH]c1=O (stereo not given)	-7.7	-3.9	2.6	5773	-6.6	2.3	-6.2
CCC(C(=O)NC1CCCC1)N(C(=O)c1snc(C(N)=O)c1N)c1ccc(OC)cc1 (stereo not given)	x	x	x	3032	x	-7.6	-16.8
COc1ccc2ccn(S(=O)(=O)c3ccccc3)c2c1	11.7	-0.1	-1.5	3297	6.3	-2.8	-9.9
NC(=O)COc1ccc(NS(=O)(=O)Cc2ccccc2)cc1	5.9	-0.6	9.0	3668	4.8	12.3	-8.0

Screening results: PubChem BioAssay, several laboratories
